Methyltransferases – Primary Screen for Target Class Profiling of Small Molecule Inhibitors of Methyltransferases | purified enzyme, MTase-Glo SAH luminescence; stronger effect = lower value | calls only at 40 µM | actives 3.9% (n = 25,000); active = -50% or lower on at least one of six enzymes; inconclusive = the cases between; inactive = as a rule above -30% on all six;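 further: enzymes were COMT GAMT GNMT HNMT NNMT and PNMT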
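Each enzyme was assayed with SAM and its substrate. SAH formation detected by MTase-Glo luminescence; single-point 40 uM screen[…].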
Calls only; i = inactive; ? = inconclusive; + = active, no number. On the % scale 0 is the no-effect control and ±100 the full control effect.

Structure	Methyltransferases
CC(=O)O[C@@H]1[C@H](O[C@@H]2O[C@@H](CO)[C@H](O)[C@H]2O)[C@@H](O[C@@H]2O[C@@H](C)[C@H](O[C@@H]3OC[C@@H](O)[C@H](O)[C@H]3O)[C@@H](O)[C@H]2O)[C@H](OC(=O)[C@]23CCC(C)(C)C[C@H]2C2=CCC4[C@@]5(C)CC[C@H](O[C@@H]6O[C@H](C(=O)O)[C@@H](O)[C@H](O)[C@H]6O[C@@H]6O[C@H](CO)[C@H](O)[C@H](O)[C@H]6O)[C@@](C)(C=O)C5CC[C@@]4(C)[C@]2(C)CC3)O[C@@H]1C (stereo not given in full)	i
NC1(C(=O)N[C@@H](CCO)c2ccc(Cl)cc2)CCN(c2ncnc3[nH]ccc23)CC1	?
CCCn1c(=O)c2ccc(C(=O)NC3CCCC3)cc2n2c(=O)n(CC(=O)Nc3ccc(CC)cc3)nc12	i
Cn1c(=O)n(C)c2cc(S(=O)(=O)NCc3ccccc3Cl)ccc21	i
CC(=O)O[C@@H]1[C@H](O[C@@H]2O[C@@H](CO)[C@H](O)[C@H]2O)[C@@H](O[C@@H]2O[C@@H](C)[C@H](O[C@@H]3OC[C@@H](O)[C@H](O)[C@H]3O)[C@@H](O)[C@H]2O)[C@H](OC(=O)[C@]23CCC(C)(C)C[C@H]2C2=CCC4[C@@]5(C)CC[C@H](O[C@@H]6O[C@H](C(=O)O)[C@@H](O)[C@H](O)[C@H]6O[C@@H]6O[C@H](CO)[C@H](O)[C@H](O)[C@H]6O)[C@@](C)(C=O)C5CC[C@@]4(C)[C@]2(C)C[C@H]3O)O[C@@H]1C (stereo not given in full)	i
COc1ccc(Cl)cc1N1C(=O)CSc2c(c3ccccc3n2C)C1C(=O)NCc1ccc(F)cc1 (stereo not given)	i
CN(C)c1nc2c(c(=O)[nH]1)CCN(Cc1ccsc1)CC2	i
CCN(CC)c1nc2c(-c3cccc(F)c3)nnn2c2ccccc12	i
CSc1ccc(-c2nc3c([nH]2)CC(C)(C)CNC3=O)cc1	i
CCCNC(=O)N1Cc2c(sc3c2CCCC3)-n2cccc2C1C(C)C (stereo not given)	i
CC(C)CCn1c(=O)c2ccc(C(=O)NC(C)C)cc2n2c(=O)n(CC(=O)NC3CCCC3)nc12	i
CCCn1c(=O)c2ccc(C(=O)NC(C)C)cc2n2c(SCC(=O)NC(C)(C)C)nnc12	i
Cc1cccc(OCC(=O)Nc2ccc3c(c2)C(=O)N(C)C2=NCCN23)c1	i
CC(C)n1c(=O)c2ccc(C(=O)NC3CCCCC3)cc2n2c(=O)n(CC(=O)N(C)c3ccccc3)nc12	i
CCC(C(=O)NCc1cccc(F)c1)n1ccc2cc(S(=O)(=O)N3CCCCC3)ccc21 (stereo not given)	i
O=C(CC1CC1)N1C[C@H]2OC(=O)N(CCc3cccc(Cl)c3)[C@H]2C1	i
CCCN1C(=O)c2cc(C(=O)NCCCc3ccccc3)nn2CC1(C)C(=O)NC1CCCC1 (stereo not given)	i
c1ccc(-c2ccc(CN3CCOC[C@H](Oc4cnccn4)C3)cc2)cc1	i
COCCN1CCCC(c2[nH]ccc2C(=O)NCCc2nc3ccccc3[nH]2)C1 (stereo not given)	i
CCOC(=O)CC(NC(=O)N1CCn2c(C)ccc2C1CC)c1ccccc1 (stereo not given)	i
O=C(c1cccnc1)N1CCC2(CC1)CC(N(C(=O)c1ccccc1)C1CC1)CCO2 (stereo not given)	i
CCCn1c(=O)c2ccc(Cl)cc2n2c(SCc3ccc(F)cc3)nnc12	i
CO[C@@H]1CO[C@H]2[C@@H]1OC[C@@H]2NC(=S)Nc1ccccc1	i
O=C(Nc1ccc(F)cc1F)N1Cc2c(sc3c2CCCC3)-n2cccc2C1c1ccccc1 (stereo not given)	i
COc1ccccc1CCNC(=O)CCCn1ccc2cc(S(=O)(=O)N3CCCC3)ccc21	i
CCC(C)NC(=O)c1ccc2c(=O)n(CCC(C)C)c3nn(Cc4ccccc4)c(=O)n3c2c1 (stereo not given)	i
C[C@@H]1O[C@@H](O[C@H]2[C@H](OC(=O)C34CCC5(C)C(=CCC6C7(C)CC(O)C(O[C@@H]8O[C@H](C(=O)O)[C@@H](O)[C@H](O)[C@H]8O)C(C)(C(=O)O)C7CCC65C)C3CC(C)(C)CC4O)O[C@H](C)[C@@H](O)[C@@H]2O)[C@H](O)[C@@H](O[C@@H]2OC[C@](O)(CO)[C@H]2O[C@@H]2O[C@H](CO)[C@@H](O)[C@H](O)[C@H]2O)[C@H]1O (stereo not given in full)	i
Cc1ccccc1NS(=O)(=O)c1cc2[nH]c(=O)[nH]c2cc1C	i
CCc1nc(NC2CCCC2)ncc1C(=O)O	i
CC1CCC(NC(=O)C2(C)Cc3ccccc3C(=O)N2CCc2ccc(Cl)cc2)CC1 (stereo not given)	i
CC(O)CN1CC2(CCC1=O)CCN(Cc1cncn1C)CC2 (stereo not given)	i
CCC(=O)N1CCc2c(C(=O)NCC(C)C)cccc21	i
CC1(C=O)CCCC2(C)C1CCC13CC(CO)C(CCC12)C3 (stereo not given)	i
COc1nc(C)cnc1NS(=O)(=O)c1cccnc1-c1ccc(-c2nnco2)cc1	i
O=C(N[C@H]1CO[C@H]2[C@@H]1OC[C@@H]2n1nnnc1Oc1ccc(-n2ccnc2)cc1)c1ccccc1	i
CCOC(=O)C1CCN(S(=O)(=O)c2cccc(-c3nc(-c4ccccc4)no3)c2)CC1	i
CC(=O)Nc1c2n(c3ccc(F)cc13)CC(C)(C(=O)NC1CCCCC1)N(C1CCCC1)C2=O (stereo not given)	i
Cc1nc(-c2c3n(c(=O)n(CC#N)c2=O)CCCCC3)no1	i
CCNCc1nc2c(N)nc3ccccc3c2n1CC(C)(C)O	i
COc1cccc(N2CCN(C(=O)CCc3nnc4n(Cc5ccc(C)cc5)c(=O)c5ccccc5n34)CC2)c1	i
CC(C)[N+]1(C)C2CCC1CC(OC(=O)C(CO)c1ccccc1)C2 (stereo not given)	i
COc1ccc(CN2CCC(N3CCOC3=O)CC2)cc1	i
C=C1CCC(OC(C)=O)C2(C)CC3OC(=O)C(C)=C3CC12 (stereo not given)	i
O=C(CCc1nnc2n(Cc3ccc(Cl)cc3)c(=O)c3ccccc3n12)NCc1cccnc1	i
CC(=O)NC1(C)CCN(Cc2cnc(-c3ccc4c(ccn4C)c3)s2)CC1	i
CCOc1ccccc1CN1C(=O)c2cc3oc(C)cc3n2CC1(C)C(=O)NC1CCCCCCC1 (stereo not given)	i
CC(C)c1cc2n(n1)CC(C)(C(=O)NC1CCCCC1)N(Cc1ccccc1Cl)C2=O (stereo not given)	i
COc1ccc(Cl)cc1NC(=O)Cn1c(=O)oc2cc(S(=O)(=O)N3CCCC3)ccc21	i
COC(=O)c1ncn2c1C(=O)N(Cc1ccccc1OC)C(C)(C(=O)NC1CCCCCC1)C2 (stereo not given)	i
O=S(=O)(c1cccc2c(I)cccc12)N1CCCNCC1	i
Cc1cc(F)ccc1-c1[nH]nc2ncc(-c3ccnn3C)nc12	i
COc1cccc2nc(-c3cccs3)nc(NN3C(=O)C=C(C)C3=O)c12	i
CCOc1c(CN(C)C(=O)Cn2cccc(OC)c2=O)cccc1OC	+
CC(C)Cn1c(=O)c2ccc(C(=O)NC(C)C)cc2n2c(SCC(=O)c3ccc(F)cc3)nnc12	i
O=C([C@H](O)c1ccccc1)N1CCc2onc(-c3cccc4ccccc34)c2C1	i
Cc1ccc(C)c(Cn2nc3n(Cc4ccc(F)cc4)c(=O)c4ccccc4n3c2=O)c1	i
Cc1ccc(CCNC(=O)Cn2c(=O)oc3cc(S(=O)(=O)NC4CCCC4)ccc32)cc1	i
Cc1ccc(Cn2nc3n(CCCOC(C)C)c(=O)c4ccccc4n3c2=O)cc1	i
CCn1cc(CNc2ccc(-c3ccccc3OC)nn2)cn1	i
COc1c(F)cccc1C(=O)N1CCc2onc(-c3ccccc3F)c2C1	i

Remaining list, next part.
Structure	Methyltransferases
CCc1cc2c(cc3n2CC(C)(C(=O)NC2CCCCC2)N(Cc2ccc(C)cc2)C3=O)s1 (stereo not given)	i
C[C@@H](c1ncncc1F)[C@](O)(Cn1cncn1)c1ccc(F)cc1F	?
COc1ccc(-c2cc3n(n2)CC(C)(C(=O)NCc2ccccc2OC)N(c2cccc(C)c2C)C3=O)cc1 (stereo not given)	i
CC(C)Oc1ccc(-c2c[nH]cc2CN(C)CCN)cc1	?
c1ccc(-c2cc(CC3(NCC4CC4)COC3)no2)nc1	i
COCCCN1C(=O)c2cc3occc3n2CC1(C)C(=O)NC1CCCCCC1 (stereo not given)	i
CC[C@H]1OC(=O)[C@H](C)[C@@H](O[C@H]2C[C@@](C)(OC)[C@@H](O)[C@H](C)O2)[C@H](C)[C@@H](O[C@H]2O[C@H](C)C[C@H](N(C)C)[C@H]2O)[C@](C)(O)C[C@@H](C)C(=O)[C@H](C)[C@@H](O)[C@]1(C)O	?
OC[C@H]1O[C@@H](Oc2ccccc2)[C@H](O)[C@@H](O)[C@@H]1O	i
CCOc1ccc(CCN2C(=O)c3cc4ccccc4n3CC2(C)C(=O)NC2CCCC2)cc1 (stereo not given)	i
C=C1C[C@]23C[C@H]1CC[C@H]2[C@]1(C)CCC[C@@](C)(C(=O)O)[C@H]1[C@@H]3C(=O)O	i
O=C(c1ccc(C(F)(F)F)cc1)N1CCCC(C(=O)N2CCC(c3nc4ccncc4[nH]3)CC2)C1 (stereo not given)	+
CN1CCOC[C@H]2CCN(C(=O)c3cccc4[nH]ccc34)C[C@H]21	i
Cc1ccc(C(=O)N2CC(CN3C(=O)c4c(c(C)nn4-c4ccccc4)C3C3CC3)C2)cc1 (stereo not given)	i
O=C1CN(Cc2c(F)cccc2Cl)S(=O)(=O)c2ccccc2N1Cc1ccc(Cl)cc1	i
COCCC(=O)N1CCC2(CCC2NC(=O)COC)CC1 (stereo not given)	i
OC1(CN2CCCCC2)CCN(Cc2ccc(C(F)(F)F)cc2F)C1 (stereo not given)	i
Cc1ccccc1CN1CC(=O)N(Cc2ccccc2)c2ccccc2S1(=O)=O	i
CC1=CC(=O)[C@H]2C(C)(C)CCC[C@]2(C)[C@@]1(O)CO	i
OCCN1CCN(c2ccc(-c3nc(-c4cccc(C(F)(F)F)c4)no3)cn2)CC1	i
N#Cc1cccc(C(=O)Nc2cc(-c3ccccc3)nn2-c2ccccc2)c1	i

Of the compounds above, 2 contain a cyano group.
Structure	Methyltransferases
Cc1nc(-c2c3n(c(=O)n(CC#N)c2=O)CCCCC3)no1	i
N#Cc1cccc(C(=O)Nc2cc(-c3ccccc3)nn2-c2ccccc2)c1	i

Continued.
Structure	Methyltransferases
COc1ccc(-c2nc3ccncc3[nH]2)cc1	+
Cc1cc(C)c2[nH]c(C(=O)N(C)Cc3ccccc3-n3cccn3)c(C)c2c1	i
CCOCCN1C(=O)COC[C@@H]1[C@H](O)c1ccc(NC(=O)c2cccc(C#N)c2)cc1	i
Cc1ccc(NC(=O)N2Cc3c(sc4c3CCCC4)-n3cccc3C2c2cc(F)cc(F)c2)cc1F (stereo not given)	i
CC1CCN(S(=O)(=O)c2ccc3c(c2)oc(=O)n3CC(=O)N2CCC(Cc3ccccc3)CC2)CC1	i
COc1ccccc1CNC(=O)C1(C)Cn2nc(-c3ccccc3)cc2C(=O)N1c1cccc(C)c1C (stereo not given)	i
Cc1ccccc1NC(=O)CSc1nnc2n(Cc3ccccc3)c(=O)c3ccccc3n12	i
CCOCC(=O)N1C[C@@H](CO)[C@H](c2ccccn2)C1	i
CN1c2cccnc2CN(C(=O)Nc2cccc(C(F)(F)F)c2)CC[C@H]1CO	i
COc1ccc(CNC(=O)C(C)n2ccc3cc(S(=O)(=O)N4CCCC4)ccc32)cc1 (stereo not given)	i
CCC(C)NC(=O)Cn1nc2n(c1=O)CCCCC2 (stereo not given)	i
CC1(C(=O)O)CCCC2(C)C3=CCC4CC3(CCC12)CC4CO (stereo not given)	i
COc1cccc(CCC(=O)N2CCC(n3cc(-c4nc(-c5ccccc5)no4)nn3)C2)c1 (stereo not given)	i
COc1ccc(NC(=O)COc2ccc(NC(=O)C3CC3)cn2)cc1	i
COCC(=O)N[C@@H]1CN(C(=O)Cc2cccc(OC)c2)CC[C@@H]1c1nc(C)no1	i
COc1ccccc1NC(=O)CSc1nnc2n(CCC(C)C)c(=O)c3ccccc3n12	i
CCCN1C(=O)c2ccc(-c3ccccc3)n2CC1(C)C(=O)NC1CCCCCC1 (stereo not given)	i
C/C=C(\C)C(=O)OC1C(C)C2(O)C3C=C(C)C(=O)C3CC(CO)=CC2C2C(C)(C)C12OC(C)=O (stereo not given)	i
CC(C)OCCCNC(=O)C1c2c(n(C)c3ccccc23)SCC(=O)N1c1ccc(C(C)C)cc1 (stereo not given)	i
CSc1ccc(CNC(=O)Cn2ccc3cc(S(=O)(=O)N4CCCCC4)ccc32)cc1	i
COc1cc([C@H]2O[C@H](c3cc(OC)c4c(c3)OCO4)[C@H](C)[C@H]2C)cc(OC)c1OC	i

Some of the entries so far, field by field:
COc1ccccc1CNC(=O)C1(C)Cn2nc(-c3ccccc3)cc2C(=O)N1c1cccc(C)c1C (stereo not given)
  Methyltransferases: i

Cc1ccccc1NC(=O)CSc1nnc2n(Cc3ccccc3)c(=O)c3ccccc3n12
  Methyltransferases: i

An excerpt; the hit share may differ from the screen's.
